HIV Env fusion: blocks HIV Env-driven cell-cell fusion; HeLa-JRFL Env/CEM21 cell fusion, luciferase; inhibition, % at 12.3 µM; 360,000 tested, 1.1% active; AID 651610;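 active means mean replicate inhibition score of at least 50 and every replicate individually at or above 50; inconclusive means only one of the two criteria met; inactive means mean below 50 and not all replicates reaching 50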;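 further: 0% = plate neutral controls and 100% = maraviroc near 300 nM; one replicate is shown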
Yeast UUG start: alters start codon recognition fidelity in yeast; S. cerevisiae UUG-firefly luciferase reporter, luminescence/redox ratio; activity score, % at 18.7 µM; 350,000 tested, 0.13% active;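 active means replicate mean at a twofold rise or more, about +100% in these data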;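 further: firefly luciferase made from a UUG start codon reports start codon fidelity; reporter light over untreated wells divided by growth signal over untreated wells; some hits fall short of that in this replicate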
Numbers without * were called inactive; ? = inconclusive; [ ] = another dose, or the depositor's remark. A portion of the library; count on the stated rates, not on these rows.

SMILES | HIV Env fusion | Yeast UUG start
Cc1noc(C)c1NC(=O)Nc1ccc2c(c1)CC(=O)N([C@@H](C)CO)C[C@H](C)[C@H](CN(C)Cc1ccc(C(=O)O)cc1)O2 | 0.5[16.7 µM] | -5.9
CNC[C@H]1Oc2ccc(N)cc2C(=O)N([C@H](C)CO)C[C@@H]1C | -5.3[16.7 µM] | -19.9
Cc1ccc(S(=O)(=O)Nc2cccc3c2O[C@H](CN(C)Cc2ccc(Cl)c(Cl)c2)[C@@H](C)CN([C@H](C)CO)C3=O)cc1 | ? | -7.0
COc1ccccc1S(=O)(=O)N[C@H]1C=C[C@H](CC(=O)N2CCOCC2)O[C@H]1CO | 5.0[16.7 µM] | -11.6
C[C@@H]1CN([C@@H](C)CO)C(=O)CCCn2nncc2CO[C@@H]1CN(C)Cc1ccc(O)cc1 | 0.4[16.7 µM] | -0.5
Cn1cnc(S(=O)(=O)N2C[C@@H](O)COC[C@@H]3O[C@@H](CC(=O)NC4Cc5ccccc5C4)CC[C@H]32)c1 | -16.0[16.7 µM] | 5.8
CO[C@@H]1CN(C)C(=O)c2ccc(NS(C)(=O)=O)cc2OC[C@@H](C)N(Cc2cncnc2)C[C@H]1C | 2.9[16.7 µM] | -3.0
CCCNC(=O)C[C@@H]1CC[C@H]2[C@@H](COc3ccc(NC(=O)CC)cc3C(=O)N2C)O1 | -5.3[16.7 µM] | -8.8
CNC[C@H]1OCCCC[C@@H](C)Oc2ccc(NC(=O)Cc3ccccc3)cc2C(=O)N([C@@H](C)CO)C[C@H]1C | -2.2[16.7 µM] | 31.3
C[C@@H]1CCCCO[C@@H](CN(C)S(C)(=O)=O)[C@@H](C)CN([C@H](C)CO)C(=O)c2cc(NC(=O)Nc3cccc4ccccc34)ccc2O1 | 22.3[16.7 µM] | -12.3
CCCN1C[C@@H](C)[C@H](OC)CN(C)C(=O)c2ccc(NC(=O)C3CCC3)cc2OC[C@@H]1C | 14.5[16.7 µM] | -12.6
C[C@@H]1CN([C@H](C)CO)S(=O)(=O)c2ccc(-c3ccncc3)cc2O[C@H]1CN(C)C(=O)CN(C)C | -0.1[16.7 µM] | -6.8
C[C@@H]1CN([C@@H](C)CO)C(=O)c2cc(NC(=O)Nc3cccc4ccccc34)ccc2O[C@@H]1CN(C)C(=O)Nc1ccc(F)cc1 | 5.9[16.7 µM] | -10.3
Cc1ccc(S(=O)(=O)N(C)C[C@H]2Oc3c(NC(=O)Nc4ccc(F)cc4)cccc3C(=O)N([C@@H](C)CO)C[C@@H]2C)cc1 | -22.7[16.7 µM] | -13.1
COc1ccc(S(=O)(=O)Nc2ccc3c(c2)C(=O)N([C@H](C)CO)C[C@@H](C)[C@@H](CN(C)S(C)(=O)=O)OCCCC[C@H](C)O3)cc1 | -18.2[16.7 µM] | 20.0
COC(=O)[C@]1(Cc2ccccc2CN=[N+]=[N-])N=C(c2ccc(OCCCO)cc2)O[C@@H]1c1ccccc1 | 43.8[16.7 µM] | -4.6
CC(C)C#Cc1ccc2c(c1)O[C@H](CN(C)Cc1ccccc1)[C@@H](C)CN([C@@H](C)CO)S2(=O)=O | -6.8[16.7 µM] | 13.6
C[C@@H]1CN([C@@H](C)CO)C(=O)c2cccc(NC(=O)Nc3ccc(C(F)(F)F)cc3)c2O[C@@H]1CN(C)Cc1ccccc1 | 8.7[16.7 µM] | -7.2
CCCC#Cc1cnc2c(c1)C(=O)N([C@H](C)CO)C[C@H](C)[C@H](CN(C)S(C)(=O)=O)O2 | -2.9[16.7 µM] | 5.9
C[C@@H]1CN([C@@H](C)CO)C(=O)c2cc(C3=CCCCC3)cnc2O[C@@H]1CN(C)C(=O)NC1CCCC1 | -2.2[16.7 µM] | 6.0
Cc1ccc(S[C@]2(C(=O)NCC(F)(F)F)CC(=O)N(C3CCCCC3)[C@@H]2c2ccc(CO)cc2I)cc1 | 3.4[16.7 µM] | -1.5
C[C@@H]1CN([C@H](C)CO)C(=O)c2cc(NS(=O)(=O)c3ccc(F)cc3)ccc2O[C@@H]1CN(C)S(=O)(=O)c1cccs1 | -15.0[16.7 µM] | 10.0
C[C@H]1CN([C@@H](C)CO)C(=O)c2cc(NS(=O)(=O)c3ccc(Cl)cc3)ccc2O[C@@H]1CN(C)S(=O)(=O)c1cccs1 | -3.5[16.7 µM] | -4.9
O=C(C[C@@H]1CC[C@H]2NC[C@H](O)COC[C@@H]2O1)NCCc1ccncc1 | 13.6[16.7 µM] | -14.4
Cc1nn(C)cc1NC(=O)C[C@@H]1CC[C@H]2[C@H](COc3ccc(NC(=O)NC(C)C)cc3C(=O)N2C)O1 | 18.4[16.7 µM] | -10.9

Look-ups from the entries so far.
C[C@@H]1CN([C@@H](C)CO)C(=O)c2cccc(NC(=O)Nc3ccc(C(F)(F)F)cc3)c2O[C@@H]1CN(C)Cc1ccccc1 in HIV Env fusion is entered as 8.7[16.7 µM]
CCCC#Cc1cnc2c(c1)C(=O)N([C@H](C)CO)C[C@H](C)[C@H](CN(C)S(C)(=O)=O)O2 in HIV Env fusion is entered as -2.9[16.7 µM]
CNC[C@H]1Oc2ccc(N)cc2C(=O)N([C@H](C)CO)C[C@@H]1C in HIV Env fusion is entered as -5.3[16.7 µM]

Retrieved by structure from the list above (3):
SMILES | HIV Env fusion | Yeast UUG start
C[C@@H]1CN([C@@H](C)CO)C(=O)CCCn2nncc2CO[C@@H]1CN(C)Cc1ccc(O)cc1 | 0.4[16.7 µM] | -0.5
CCCC#Cc1cnc2c(c1)C(=O)N([C@H](C)CO)C[C@H](C)[C@H](CN(C)S(C)(=O)=O)O2 | -2.9[16.7 µM] | 5.9
C[C@@H]1CN([C@@H](C)CO)C(=O)c2cccc(NC(=O)Nc3ccc(C(F)(F)F)cc3)c2O[C@@H]1CN(C)Cc1ccccc1 | 8.7[16.7 µM] | -7.2

Further compounds follow:
SMILES | HIV Env fusion | Yeast UUG start
C[C@H]1CN([C@@H](C)CO)S(=O)(=O)c2ccc(C#CCN(C)C)cc2O[C@H]1CN(C)C(=O)C1CCC1 | -6.9[16.7 µM] | -7.5
CC(=O)N(C)C[C@@H]1Oc2cc(C#Cc3cccc(F)c3)ccc2S(=O)(=O)N([C@@H](C)CO)C[C@H]1C | 29.0[16.7 µM] | 6.6
CN(C)CC(=O)Nc1ccc2c(c1)[C@@H]1C[C@@H](CC(=O)NCc3ccncc3)O[C@H](CO)[C@@H]1O2 | -2.1[16.7 µM] | -12.3
COc1ccccc1S(=O)(=O)N[C@H]1CC[C@H](CCNC(=O)C2CCCC2)O[C@H]1CO | -5.5[16.7 µM] | 224.0*
C[C@@H]1CN([C@H](C)CO)C(=O)c2cccc(NS(C)(=O)=O)c2O[C@H]1CN(C)Cc1ccccc1 | -1.5[16.7 µM] | -3.3
Cc1ccc(S(=O)(=O)N(C)C[C@@H]2Oc3ncc(C#Cc4ccc(F)cc4)cc3C(=O)N([C@H](C)CO)C[C@@H]2C)cc1 | 20.4[16.7 µM] | -7.5
C[C@@H]1CN([C@@H](C)CO)C(=O)c2cc(NS(=O)(=O)c3cn(C)cn3)ccc2O[C@H]1CN(C)CC1CC1 | -3.3[16.7 µM] | -4.9
CC(C)NC(=O)N(C)C[C@H]1Oc2ccc(NC(=O)CCCCCC(=O)Nc3ccccc3N)cc2CC(=O)N([C@@H](C)CO)C[C@@H]1C | 1.5[16.7 µM] | 1.1
O=C(Nc1ccc2c(c1)[C@H]1C[C@H](CC(=O)N3CCOCC3)O[C@@H](CO)[C@H]1O2)C1CCOCC1 | 34.0[16.7 µM] | -8.6
Cc1noc(C)c1NC(=O)Nc1ccc2c(c1)CC(=O)N([C@@H](C)CO)C[C@@H](C)[C@H](CN(C)C(=O)NC1CCCCC1)O2 | 11.7[16.7 µM] | -2.1
CO[C@@H]1CN(C)C(=O)c2cc(NC(C)=O)ccc2OC[C@H](C)N(C(=O)CN2CCOCC2)C[C@@H]1C | -1.0[16.7 µM] | -4.7
C[C@H]1CN([C@@H](C)CO)C(=O)c2cccc(NC(=O)c3cnccn3)c2O[C@@H]1CN(C)Cc1ccc(Cl)c(Cl)c1 | 4.1[16.7 µM] | 14.9
C[C@@H]1CN([C@H](C)CO)C(=O)CCCn2nncc2CO[C@H]1CN(C)Cc1ccc(C(=O)Nc2ccccc2N)cc1 | 18.6[16.7 µM] | -5.6
O=C(N[C@@H]1CC[C@H](CCNS(=O)(=O)c2ccc(F)cc2)O[C@H]1CO)c1cccc(F)c1 | -0.3[16.7 µM] | -0.3
CN(C)CC(=O)N[C@H]1CC[C@@H](CCNC(=O)C2CCCC2)O[C@@H]1CO | -14.0[16.7 µM] | 86.7
O=C(CN1CCOCC1)N[C@@H]1CC[C@@H](CCNS(=O)(=O)c2ccccc2F)O[C@@H]1CO | -3.8[16.7 µM] | 2.9
C[C@@H](NC(=O)C[C@@H]1C=C[C@H](NC(=O)C2CCC2)[C@@H](CO)O1)c1ccccc1 | 20.3[16.7 µM] | 23.3
COc1ccc(CN(C)C[C@@H]2Oc3ccc(NC(=O)CCN4CCOCC4)cc3C(=O)N([C@@H](C)CO)C[C@H]2C)cc1 | -15.5[16.7 µM] | 4.7
CC(C)NC(=O)N(C)C[C@@H]1Oc2c(NC(=O)c3ccc(-c4nccs4)cc3)cccc2C(=O)N([C@@H](C)CO)C[C@@H]1C | 14.4[16.7 µM] | -3.3
CCC(=O)N[C@H]1CC[C@@H](CCNC(=O)Nc2ccc(C(F)(F)F)cc2)O[C@H]1CO | 5.1[16.7 µM] | 71.6
C[C@H]1CN([C@@H](C)CO)C(=O)c2cccc(NC(=O)Nc3ccc(F)cc3)c2O[C@@H]1CN(C)CC1CC1 | -0.8[16.7 µM] | -14.0
C[C@@H]1CCCCO[C@@H](CN(C)C(=O)Nc2ccc(F)cc2)[C@H](C)CN([C@@H](C)CO)C(=O)c2cc(NC(=O)CCCN(C)C)ccc2O1 | 14.0[16.7 µM] | -6.2
C[C@H](CO)N1C[C@H](C)[C@H](CN(C)Cc2ccc(Oc3ccccc3)cc2)Oc2ccc(NS(=O)(=O)c3cccs3)cc2CC1=O | -16.9[16.7 µM] | 18.7
C[C@@H]1CN([C@@H](C)CO)C(=O)c2cccc(NC(=O)C3CC3)c2O[C@H]1CN(C)C(=O)Nc1cccc2ccccc12 | -4.7[16.7 µM] | -4.6
Cc1noc(C)c1NC(=O)N(C)C[C@@H]1Oc2c(NS(=O)(=O)c3ccc(Cl)cc3)cccc2C(=O)N([C@H](C)CO)C[C@@H]1C | 22.5[16.7 µM] | 6.7

(continued)
SMILES | HIV Env fusion | Yeast UUG start
C[C@H](CO)N1C[C@H](C)[C@H](CN(C)C(=O)Nc2ccc(C(F)(F)F)cc2)OCCCC[C@H](C)Oc2ccc(NS(=O)(=O)c3cccs3)cc2C1=O | 16.6[16.7 µM] | 0.0
CC(C)CC#Cc1ccc2c(c1)O[C@@H](CN(C)C(=O)c1ccncc1)[C@@H](C)CN([C@@H](C)CO)S2(=O)=O | 3.7[16.7 µM] | -23.0
O=C(C[C@H]1CC[C@@H](NS(=O)(=O)c2ccccc2)[C@H](CO)O1)N1CCc2ccccc2C1 | 7.2[16.7 µM] | -9.2
Cc1ccc(S(=O)(=O)Nc2ccc3c(c2)C(=O)N([C@@H](C)CO)C[C@H](C)[C@H](CN(C)C(=O)Nc2ccccc2)OCCCC[C@@H](C)O3)cc1 | -30.7[16.7 µM] | 1.1
COc1ccc(S(=O)(=O)Nc2ccc3c(c2)CC(=O)N([C@H](C)CO)C[C@@H](C)[C@H](CN(C)C(=O)NC2CCCCC2)O3)cc1 | -8.2[16.7 µM] | 0.2
Cc1noc(C)c1NC(=O)N(C)C[C@H]1OCCCC[C@@H](C)Oc2ccc(NS(=O)(=O)c3ccccc3)cc2C(=O)N([C@H](C)CO)C[C@H]1C | -22.1[16.7 µM] | 23.8

Compounds from the list above that have a thiophene ring, fused or not:
SMILES | HIV Env fusion | Yeast UUG start
C[C@@H]1CN([C@H](C)CO)C(=O)c2cc(NS(=O)(=O)c3ccc(F)cc3)ccc2O[C@@H]1CN(C)S(=O)(=O)c1cccs1 | -15.0[16.7 µM] | 10.0
C[C@H]1CN([C@@H](C)CO)C(=O)c2cc(NS(=O)(=O)c3ccc(Cl)cc3)ccc2O[C@@H]1CN(C)S(=O)(=O)c1cccs1 | -3.5[16.7 µM] | -4.9
C[C@H](CO)N1C[C@H](C)[C@H](CN(C)Cc2ccc(Oc3ccccc3)cc2)Oc2ccc(NS(=O)(=O)c3cccs3)cc2CC1=O | -16.9[16.7 µM] | 18.7
C[C@H](CO)N1C[C@H](C)[C@H](CN(C)C(=O)Nc2ccc(C(F)(F)F)cc2)OCCCC[C@H](C)Oc2ccc(NS(=O)(=O)c3cccs3)cc2C1=O | 16.6[16.7 µM] | 0.0

Source: PubChem BioAssay (Broad Institute)
